Assay outcomes (PubChem)
Mtb H37Rv: M. tuberculosis H37Rv growth inhibitors, H37Rv strain (AID 1626) | one-dose inhibition, % at 10 µM; IC50 in µM for titrated hits | M. tuberculosis H37Rv growth inhibition; higher % means a stronger effect | actives 0.95% (n = 220,000);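 active = confirmed in a dose series; inconclusive = inhibition above 80% but not taken into the dose series; inactive = below 80% or under 30% at every dose of the series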;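 also: bacteria incubated seven days before Alamar blue readout; 0% = bacteria only wells and 100% = bacteria with antibiotic wells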
Mtb betalactam: beta-lactam sensitization of Mtb H37Rv. actives 0.27% (n = 330,000). AID 434955. M. tuberculosis H37Rv growth with meropenem, percent inhibition; hits of this screen are not shown here. inhibition, % at 25 µM;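 active = about 74% or more and at least 40 points above the plate without the antibiotic, then above 30% in a dose series; inconclusive = first-round hits that could not be retested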;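 also: growth measured after seven days incubation then overnight dye step; 0% = bacteria only wells and 100% = bacteria with antibiotic; twin plates without the antibiotic show which effects depend on it; some results filed as inactive read as strong as hits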
Arbovirus inh: blocks arbovirus infection | actives 0.37% (n = 200,000) | AID 1251 | inhibition, % at 10 µM | arbovirus infection cell-based antiviral screen;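 active = inhibition from about 30%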;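 also: bluetongue infection of BSR cells; cell survival read as ATP light after 72 h; 0% = infected wells without compound and 100% = uninfected wells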
RecA intein inh: blocks M. tuberculosis RecA intein splicing | actives 0.75% (n = 290,000) | cell-free RecA intein splicing, fluorescence | inhibition, %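 (about 9 µM by stock and volumes)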 | P9WHJ3 | AID 2221; in the data active = inhibition above about 30%; inconclusive = no clear call, values can overlap the other calls;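 also: 0% = vehicle wells and 100% = reference inhibitor control wells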
Target sequence (P9WHJ3 whole entry, looked up): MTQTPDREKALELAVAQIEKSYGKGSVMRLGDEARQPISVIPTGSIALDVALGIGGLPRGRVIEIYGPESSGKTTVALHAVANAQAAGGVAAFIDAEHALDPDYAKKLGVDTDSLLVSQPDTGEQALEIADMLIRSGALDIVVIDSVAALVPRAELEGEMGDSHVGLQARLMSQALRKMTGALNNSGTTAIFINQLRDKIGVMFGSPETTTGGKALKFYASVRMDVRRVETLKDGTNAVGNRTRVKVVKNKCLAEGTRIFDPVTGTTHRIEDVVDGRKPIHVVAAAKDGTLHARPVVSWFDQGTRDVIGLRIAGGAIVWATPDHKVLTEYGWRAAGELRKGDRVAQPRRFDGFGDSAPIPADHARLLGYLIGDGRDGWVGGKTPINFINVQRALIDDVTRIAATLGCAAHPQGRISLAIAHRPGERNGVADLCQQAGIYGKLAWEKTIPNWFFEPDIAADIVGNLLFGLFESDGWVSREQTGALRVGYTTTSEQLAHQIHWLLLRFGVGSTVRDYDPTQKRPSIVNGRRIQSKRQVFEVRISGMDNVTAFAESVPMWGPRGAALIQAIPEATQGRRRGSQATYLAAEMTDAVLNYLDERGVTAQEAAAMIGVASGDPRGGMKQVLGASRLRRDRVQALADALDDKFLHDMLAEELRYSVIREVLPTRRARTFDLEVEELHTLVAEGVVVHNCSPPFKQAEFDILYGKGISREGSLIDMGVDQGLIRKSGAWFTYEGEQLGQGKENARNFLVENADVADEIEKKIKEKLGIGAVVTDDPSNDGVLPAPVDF
YopH PTP inh: YopH (Yersinia) phosphatase inhibition | fluorescence Ex485/Em525 | AID 898 | actives 0.16% (n = 140,000) | inhibition, %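 (about 10 µM by stock and volumes)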;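 active = inhibition of 50% or more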;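 also: controls were vehicle for no effect and minimum signal wells for full effect; inactives centre near -20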
Arbovirus inh repeat: further read-out of Arbovirus inh, marked with its call; inhibition, %; measured here: 10K subset replicate screen; many hits read low in the repeat;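 first of two repeat runs on a subset; 0% = infected and 100% = uninfected wells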
Starred values were filed as active, the others as inactive; u = inconclusive; x = no result given. An excerpt; rates above refer to the full screens.

SMILES | Mtb H37Rv | Mtb betalactam | Arbovirus inh | RecA intein inh | YopH PTP inh | others
CC(C)(C)NC(=O)N1c2ccccc2Sc2ccccc21 | x | -1 | x | 2.5 | x
Cc1ccn2cc(C(=O)NCc3ccco3)nc2c1 | -3% | -11 | 7 | 6.1 | x
COc1ccc(CN(C)S(=O)(=O)c2nnc(NC(=O)c3ccccc3)s2)cc1OC | x | 4 | x | -0.7 | x
C/C(Cl)=C\Cn1c(Nc2ccc(C)cc2)nc2c1c(=O)n(C)c(=O)n2C | -2% | -1 | -5 | 0.8 | -5
Cc1cccc(N2CCN(C(=O)c3ccc(NS(=O)(=O)c4ccc5[nH]c(=O)[nH]c5c4)cc3)CC2)c1C | x | 68 | x | 11 | x
COc1ccc(NC(=O)CN(C)C(=O)c2oc3ccccc3c2C)cc1 | -4% | 5 | 15 | -2.0 | x
Cc1cc(F)c(F)c(C(=O)NC2CC2)c1Cl | 1% | -4 | -6 | -4.4 | -5
COc1ccc(-c2ccc(NS(=O)(=O)c3cc([N+](=O)[O-])ccc3C)cc2)nn1 | x | 1 | x | 0.4 | x
CSc1nc2sc3c(c2c2nncn12)CCC3 | -2% | -5 | 1 | -1.5 | -25
CCc1ccc2c(c1)cc(CN(C(=S)Nc1ccc(Cl)cc1)C1CC1)c1nnnn12 | -8% | -5 | 1 | -0.8 | -22
CCN(CC(=O)NC1CCS(=O)(=O)C1)c1nc(-c2cccnc2)nc2ccccc12 (stereo not given) | -11% | -10 | -4 | -0.2 | -7
O=C(O)c1cc(-n2nnnc2SCc2ccccc2F)ccc1Cl | -7% | -5 | 5 | 1.2 | x
NC(=O)Cc1ccc(Nc2nnc(-c3ccccc3)c3ccccc23)cc1 | -3% | 42 | -3 | 2.8 | -13
CCS(=O)(=O)c1ccc2c(c1)N(S(=O)(=O)c1ccc(Cl)cc1)CC(C(=O)O)O2 (stereo not given) | -2% | 1 | 3 | -0.7 | x
C[C@@H](CN=[N+]=[N-])CN1CC[C@H](O)CCC1=O | x | -16 | x | -1.0 | x
O=C(c1csc2ccccc12)n1cccn1 | x | 11 | 6 | x | -39
N#Cc1c(N)nc2c(c1-c1ccc3c(c1)OCO3)CCCCCC2 | 4% | 2 | -8 | -0.5 | -34 | Arbovirus inh repeat=-3
CC(C)NC(=O)c1ccccc1NC(=O)Cc1ccc(Cl)cc1 | 0% | -6 | -4 | -2.0 | -30
CC(C)(Oc1ccc(Cl)cc1)C(=O)NCC(c1ccco1)N1CCCCC1 (stereo not given) | x | 0 | x | 2.0 | x
O=C(Cn1c(=O)sc2ccccc21)Nc1ccc2c(c1)OCCO2 | -9% | 4 | -2 | 1.6 | -8 | Arbovirus inh repeat=5
O=C(O/N=C1\CCS(=O)(=O)c2sccc21)c1c(F)cccc1F | 0% | 1 | 5 | 2.3 | x
C1=C2C[N+]3(CCCC3)CC2Cc2ccc3ccccc3c21 (stereo not given) | 2% | -9 | -4 | 0.9 | -19
CC1CN(CCCCOc2cccc(Oc3ccccc3)c2)CC(C)O1 (stereo not given) | 15% | 15 | 1 | 4.5 | x
CCn1nc(C)c(C2C(C#N)=C(N)OC3=C2C(=O)CCC3)c1C (stereo not given) | 7% | -3 | 9 | 0.0 | -14
N#Cc1ccccc1NC(=O)CSc1nnc(-c2ccccc2O)n1-c1ccccc1 | -5% | u | -1 | -0.1 | -20
NNC(=O)C1=NOC2COC3(CCN(c4ncccn4)CC3)OCC12 (stereo not given) | 5% | 2 | 0 | -2.9 | x
CCOC(=O)c1ccccc1NC(=O)/C=C/C(=O)O | -12% | 4 | 3 | 2.2 | -24
CCCNc1nc(N)nc(-c2cc(Cl)ccc2OC)n1 | 4% | 6 | -7 | x | 2
Cc1ccc(-n2ncc3c(=O)n(CC(=O)NC4CCCCC4)cnc32)cc1C | -1% | -10 | -7 | -1.4 | -14
CC(=O)c1c(O)cc2n(c1=O)-c1ccc(Cl)cc1C2(C)C | 4% | 5 | 4 | -1.0 | -22
c1ccc(Cn2nnc(-c3ccccc3)n2)cc1 | -5% | 5 | -9 | -1.9 | 12
O=C(CCC(=O)N1CCN(c2ccc(O)cc2)CC1)c1ccc(Br)cc1 | -6% | 7 | x | -6.6 | x
C=CCN1C(=O)/C(=C\c2ccc(C)cc2)N=C1SCC(=O)NCCC | -1% | -9 | 5 | 0.2 | -16
Cc1cc2cc(C(c3nnnn3Cc3ccccc3)N3CCc4ccccc43)c(=O)[nH]c2cc1C (stereo not given) | x | 3 | -4 | 17 | -23
CCOc1ccc(CCNc2ccc3nnc(-c4ccccc4)n3n2)cc1OCC | 14% | 1 | 15 | 2.5 | -23
COCCCN1CN=C(Nc2nc3ccccc3o2)NC1 | 3% | -6 | 3 | -2.1 | x
CCOc1ccccc1NC(=O)c1ccc(C(=O)Nc2ccccc2OCC)nc1 | x | 5 | x | -7.7 | x
CC(Cl)C(=O)NN=C(c1ccccc1)c1ccccc1 (stereo not given) | -1% | -4 | 6 | 6.0 | x
COc1ccc2c(c1OC)C(=O)N1c3ccccc3COC21 (stereo not given) | -2% | 47 | 0 | 1.2 | -30
CCCC12CN3CC(C)(CN(C1)C3c1cccs1)C2=O (stereo not given) | -12% | -9 | x | -1.6 | x
O=C(Cc1ccccc1)Nc1ccc(N2CCOCC2)cc1 | 0% | -3 | 3 | -2.4 | x
CCOCCCNC(=O)/C(C#N)=C/c1cc(C)c(O)c(C)c1 | -9% | -7 | -12 | 3.7 | x
O=C(Nn1c(-c2ccncc2)nc2ccccc2c1=O)c1ccc(Br)cc1 | -1% | 2 | -6 | 2.7 | x
O=c1[nH]c(=O)n(Cc2ccc(F)cc2)c(O)c1C=Nc1ccc(Cl)cc1 | -2% | 2 | -1 | -18 | x
COc1ccc(NC(=S)NNc2ccc(S(=O)(=O)Nc3ccccc3C(=O)O)cc2[N+](=O)[O-])cc1 | 1% | -8 | x | 2.3 | x
CC(C)Cc1nnc(NS(=O)(=O)c2ccc(Cl)cc2)s1 | 1% | -3 | 3 | -0.1 | -33 | Arbovirus inh repeat=14
COc1ccc(Nc2ncccc2C(=O)NCc2ccccc2)cc1 | 7% | -8 | -1 | 4.4 | -1
COC(=O)CSc1nnc(CNC(=O)c2ccc(S(=O)(=O)N3CCCCC3)cc2)n1C | -12% | -3 | 5 | x | -6
COc1cccc2c1NC(C(=O)O)C1CC=CC21 (stereo not given) | 6% | 2 | 17 | 9.8 | 1
Cc1cccc2cc(CN(Cc3cccnc3)C(=S)NCCCN(C)C)c(=O)[nH]c12 | -7% | -6 | -1 | -0.7 | x

3 entries already listed, ordered by molar mass, smallest number first:
SMILES | Mtb H37Rv | Mtb betalactam | Arbovirus inh | RecA intein inh | YopH PTP inh | others
COc1cccc2c1NC(C(=O)O)C1CC=CC21 (stereo not given) | 6% | 2 | 17 | 9.8 | 1
CCOCCCNC(=O)/C(C#N)=C/c1cc(C)c(O)c(C)c1 | -9% | -7 | -12 | 3.7 | x
O=C(Nn1c(-c2ccncc2)nc2ccccc2c1=O)c1ccc(Br)cc1 | -1% | 2 | -6 | 2.7 | x

New compounds follow:
SMILES | Mtb H37Rv | Mtb betalactam | Arbovirus inh | RecA intein inh | YopH PTP inh | others
Cc1cc(C)n2nc(/C(C#N)=C/c3ccccc3)c(C#N)c2n1 | -2% | x | 5 | x | -3
CCN(CC(=O)Nc1c(F)cccc1F)C(=O)CCOc1ccc(C)cc1 | x | -2 | x | 0.0 | x
O=S1(=O)CC(O)C(N2CCCCC2)C1 (stereo not given) | 3% | -10 | 10 | -3.9 | -30
COc1ccccc1C(c1nnnn1Cc1ccccc1)N1CCC(C(N)=O)CC1 (stereo not given) | -4% | 8 | 3 | 0.7 | -15
COCCCN1C(=O)C(=O)/C(=C(/O)c2ccccc2)C1c1ccc2c(c1)OCO2 (stereo not given) | -4% | 0 | 0 | 2.1 | -30
Cc1ccc(Nc2ccccc2N)cc1 | 1.5µM* | 100 | 1 | -1.9 | x
CN1/C(=c2/s/c(=C3/C(=O)N(c4ccccc4)NC3=Nc3ccccc3)n(C)c2=O)C(C)(C)c2ccccc21 | 21% | 91 | 9 | 5.8 | -10
Cc1c(C(=O)NCCC2=CCCCC2)oc2ccc(S(=O)(=O)N3CCOCC3)cc12 | 2% | 2 | 0 | x | -34 | Arbovirus inh repeat=-11
C=CCSC1=C(C#N)C(c2ccc(C(C)C)cc2)CC(=O)N1 (stereo not given) | 3% | -9 | 0 | 4.5 | -32 | Arbovirus inh repeat=3
Cc1cc(-c2ccc(/C=N/n3cnnc3)o2)c([N+](=O)[O-])cc1C | -4% | -4 | 5 | 5.1 | 18
Cc1noc(NS(=O)(=O)c2ccc(NC(=O)C34CCC(CC3)C4)cc2)c1C | -2% | 5 | -1 | 0.1 | -34
CCOC(=O)C1CCCN(C(=O)c2cc(Cl)ccc2NC(=O)C2=C(C)OCCS2)C1 (stereo not given) | x | -7 | x | 0.9 | x
COc1ccc(N2CCN(CC(=O)Nc3ccc(SC(F)F)cc3)CC2)cc1 | 4% | 3 | 6 | 0.2 | -22
Cc1ccccc1-n1ncc2c1CC(C)(C)CC2NC(=O)CCN1Cc2ccccc2C1=O (stereo not given) | x | 1 | x | 3.4 | x
CCCCOc1ccc(-c2nnc(N)s2)cc1 | 2% | 4 | 3 | 0.1 | -18
CCCCNC(=O)N(O)C1N(CCCC)C(=O)N(CC(=O)OC)C1(C)C (stereo not given) | -1% | 6 | 1 | x | -14
CCOc1cccc(/C(O)=C2/C(=O)C(=O)N(CCOC)C2c2ccc(C)o2)c1 (stereo not given) | -1% | 7 | 10 | 1.7 | -43
CN(C)/C=C/C(=O)c1ccc(Cl)s1 | -3% | -7 | 3 | 1.7 | x
Cc1nnc(SCC(=O)N2CCCCC2)s1 | -7% | -10 | -1 | -2.7 | -8
CC(C)OCCCNC(=O)C(NC(=O)c1ccc(Cl)cc1)C(C)C (stereo not given) | -11% | 0 | 20 | 0.2 | x

A run of entries of the results above:
SMILES | Mtb H37Rv | Mtb betalactam | Arbovirus inh | RecA intein inh | YopH PTP inh | others
Cc1noc(NS(=O)(=O)c2ccc(NC(=O)C34CCC(CC3)C4)cc2)c1C | -2% | 5 | -1 | 0.1 | -34
CCOC(=O)C1CCCN(C(=O)c2cc(Cl)ccc2NC(=O)C2=C(C)OCCS2)C1 (stereo not given) | x | -7 | x | 0.9 | x
COc1ccc(N2CCN(CC(=O)Nc3ccc(SC(F)F)cc3)CC2)cc1 | 4% | 3 | 6 | 0.2 | -22
Cc1ccccc1-n1ncc2c1CC(C)(C)CC2NC(=O)CCN1Cc2ccccc2C1=O (stereo not given) | x | 1 | x | 3.4 | x
CCCCOc1ccc(-c2nnc(N)s2)cc1 | 2% | 4 | 3 | 0.1 | -18
CCCCNC(=O)N(O)C1N(CCCC)C(=O)N(CC(=O)OC)C1(C)C (stereo not given) | -1% | 6 | 1 | x | -14
CCOc1cccc(/C(O)=C2/C(=O)C(=O)N(CCOC)C2c2ccc(C)o2)c1 (stereo not given) | -1% | 7 | 10 | 1.7 | -43

(cont.)
SMILES | Mtb H37Rv | Mtb betalactam | Arbovirus inh | RecA intein inh | YopH PTP inh | others
Cc1cccc(Nc2nc(-c3ccccc3)c(C(=O)Nc3cccnc3)s2)c1 | 19% | 3 | 12 | -0.3 | -19
CC1=NN(c2ccccc2)C(=O)C1C=Nc1ccccc1O (stereo not given) | -1% | 96 | x | 3.0 | x
COc1ccc(CNc2nc3nc(C)c(Cl)c(=O)n3[nH]2)cc1OC | -4% | 1 | 6 | 4.4 | -17
COc1ccccc1Nc1nc(-c2cccc([N+](=O)[O-])c2)nc2ccccc12 | 4% | 4 | -6 | 1.0 | -31
O=C(NCCc1ccc2c(c1)OCCO2)c1cccc(F)c1 | 12% | 8 | 4 | -1.2 | -1
O=C(COC(=O)c1c2c(nc3ccccc13)CCCC2)c1ccc(Br)s1 | 5% | 53 | 10 | 1.0 | -31
CCN(c1ccccc1)S(=O)(=O)c1cc2c(cc1C)NC(=O)CO2 | x | 4 | x | 3.1 | x
O=C(CCOc1ccccc1)Nc1ccnn1C1CCN(Cc2ccccc2)CC1 | x | -3 | x | 2.1 | x
CCOC(=O)c1cc2c(C)n(-c3ccc(OCC)cc3)c(C)c2cc(C(=O)OCC)c1=O | 4% | -5 | 4 | -2.6 | -28
O=C(CNC(=O)c1ccccc1Br)N/N=C\c1cc([N+](=O)[O-])cc(Br)c1O | x | 1 | x | 4.9 | x
CC(C)(C)c1ccc(OCC(=O)Nc2ccncc2)c(Br)c1 | x | 26 | x | 4.3 | x
O=C(Cn1cccc1)NC1CCCCCC1 | -5% | x | 4 | 0.8 | -15
CC1(C)CCCC2=C1CC1C(=O)N(Cc3cccnc3)C(=O)C1C2 (stereo not given) | -8% | u | -8 | 3.4 | -32 | Arbovirus inh repeat=5
CCOC(=O)C(NCc1ccc2c(c1)OCO2)(NC(=O)c1ccccc1)C(F)(F)F (stereo not given) | 0% | 0 | 6 | -1.4 | -11
CC(C)N(CC(O)c1cccc([N+](=O)[O-])c1)C(C)C (stereo not given) | 0% | 9 | 0 | 1.1 | -23
